Bioassay records as filed in PubChem.
Calb FLC: C. albicans growth inhibition with fluconazole, primary screen, CaCi-2 strain, Alamar Blue fluorescence. C. albicans CaCi-2 (fluconazole-resistant clinical isolate) + fluconazole, 48 h. hit rate 0.57% among 300,000. growth inhibition, % (test concentration not listed);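 active = most replicates above 75%; inconclusive = exactly half above 75%; inactive = most below 75%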;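 also: all wells also contain fluconazole at 8 µg/ml as a sub-toxic cotreatment; 0% = median of DMSO wells and 100% = median of geldanamycin control wells; wells of about 8 µL received 7.5 nL stock; the first replicate is given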
HNF4A DNA FP: change in binding of human HNF4A to DNA, primary screen, biochemical, fluorescence polarization, FITC-DNA; AID 1224865, 2016; activity change, % at 10 µM; hit rate 0.3% among 360,000; 1 h; Hepatocyte nuclear factor 4-alpha (Homo sapiens), P41235; in the data active = activity change above about 30%, passing the limit was not always enough;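 also: controls were the assay level and a saturating level of protein; the project sought stronger binding though the title names inhibitors; some compounds called inactive have numbers as strong as hits; positive values seem to mean higher polarization but the record does not say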
Target sequence (P41235 whole entry, looked up): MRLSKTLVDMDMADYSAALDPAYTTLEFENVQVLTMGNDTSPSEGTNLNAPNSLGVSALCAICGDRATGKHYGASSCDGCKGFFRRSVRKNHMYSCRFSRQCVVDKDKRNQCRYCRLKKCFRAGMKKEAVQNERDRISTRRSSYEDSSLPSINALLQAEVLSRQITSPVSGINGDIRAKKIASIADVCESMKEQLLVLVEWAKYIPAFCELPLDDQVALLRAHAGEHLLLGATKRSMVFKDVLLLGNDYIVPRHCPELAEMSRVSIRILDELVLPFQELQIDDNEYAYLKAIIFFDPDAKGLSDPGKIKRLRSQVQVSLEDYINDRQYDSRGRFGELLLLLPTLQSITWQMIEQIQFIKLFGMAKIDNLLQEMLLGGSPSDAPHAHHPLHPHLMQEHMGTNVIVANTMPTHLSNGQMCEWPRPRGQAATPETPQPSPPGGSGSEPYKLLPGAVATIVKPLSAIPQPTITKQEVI
LANA-H2B inh: blockers of LANA interaction with H2A/H2B – biochemical, FP readout, HTS, primary screen | Protein LANA1 (Human herpesvirus 8 type P (isolate GK18)), Q9QR71 | cell-free LANA-H2A/H2B peptide, fluorescence polarization | inhibition, % (no concentration beside the values) | hit rate 0.6% among 320,000 | AID 2629, 2010; in the data active = inhibition mostly above about 10%, no sharp cut-off; inactive = mostly below about 6.7%;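 also: stock transfer was 7.5 nL into about 10 µL; 0% = median of vehicle wells and 100% = median of positive control wells; one replicate is shown; the record names a cut of 25% in any replicate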
Beta2AR agonist: beta2AR agonists driving receptor internalization, primary screen, cell-based, FAP fluorogen, flow cytometry | hit rate 0.43% among 340,000 | AID 504454, 2011 | Am2.2-beta2AR cells; reference of the scale not given here | response, % (concentration not given with the values);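 active = response above a set limit, near 3 SD of response in nonfluorescent compounds, cut at about 42% in these data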;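 also: stock transfer was 100 nL into about 11 µL; a reference agonist was the positive control; negative values mostly stem from fluorescent compounds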
Target sequence (P07550 whole entry, looked up): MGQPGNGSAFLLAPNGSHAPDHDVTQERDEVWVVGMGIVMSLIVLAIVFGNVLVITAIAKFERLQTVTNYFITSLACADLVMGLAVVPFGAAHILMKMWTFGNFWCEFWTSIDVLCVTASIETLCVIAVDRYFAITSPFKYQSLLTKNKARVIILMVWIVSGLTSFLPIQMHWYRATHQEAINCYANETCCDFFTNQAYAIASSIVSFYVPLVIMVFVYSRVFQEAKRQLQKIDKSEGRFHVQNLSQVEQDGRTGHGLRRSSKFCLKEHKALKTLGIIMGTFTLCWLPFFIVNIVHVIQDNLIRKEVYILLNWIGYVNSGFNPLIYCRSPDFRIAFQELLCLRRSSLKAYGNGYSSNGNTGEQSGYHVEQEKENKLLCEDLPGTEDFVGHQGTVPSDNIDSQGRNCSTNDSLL
RanGTP-Impb inh: inhibitors of RanGTP-importin-beta interaction, primary screen, biochemical, FRET, CFP-Ran, YFP-importin-beta, homogeneous. Ran GTPase (GTP-bound) - importin-beta complex. cell-free CFP-Ran/YFP-importin-beta FRET ratio. inhibition, % (concentration not given with the values). hit rate 1.1% among 300,000. AID 2216, 2009;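 active = most replicates above 15%; inconclusive = exactly half above 15%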;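 also: 0% = DMSO wells and 100% = Ran loaded with GDP instead of GTP; wells of about 40 µL received 100 nL stock; the first replicate is given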
ALR inh: inhibitors of human ALR sulfhydryl oxidase, primary screen, biochemical, H2O2 detection, HRP-luminol luminescence, single point; FAD-linked sulfhydryl oxidase ALR (Homo sapiens), P55789; purified ALR, DTT oxidation; inhibition, % (test concentration not listed); hit rate 3.8% among 290,000;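 active = mean and each replicate at 75% or more; inconclusive = only one of the two met; inactive = neither met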;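 also: stock transfer was 7.5 nL into about 7.5 µL; 0% = neutral wells and 100% = wells with inactivated enzyme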
Target sequence (P55789 whole entry, looked up): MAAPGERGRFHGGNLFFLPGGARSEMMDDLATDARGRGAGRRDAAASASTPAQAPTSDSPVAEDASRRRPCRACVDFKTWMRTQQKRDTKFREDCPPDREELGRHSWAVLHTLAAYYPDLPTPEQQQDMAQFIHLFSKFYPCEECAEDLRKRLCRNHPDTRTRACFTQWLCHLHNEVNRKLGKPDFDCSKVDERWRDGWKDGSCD
Vif A3G: inhibitors of Vif binding to APOBEC3G peptide, primary screen, biochemical, TR-FRET, GST-Vif 1-94, biotin-A3G peptide, dose response retest (AID 1117319) | TR-FRET GST-Vif / biotin-A3G peptide binding; higher % means a stronger effect; test concentration not given here; strong numbers were not always called active | inhibition, %; hits with a dose series show IC50 in µM | hit rate 0.57% among 260,000;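 active = above the screen mean plus three standard deviations and confirmed in dose response; inconclusive = results disagree or hit not tested in dose response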;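 also: Vif residues 1-94 fused to GST binding biotinylated APOBEC3G peptide 110-148; 0% = full assay without inhibitor and 100% = GST in place of GST-Vif; retest series ran down from 100 µM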
Numbers without * were called inactive; ? = inconclusive; · = not tested or not shown.

SMILES | Calb FLC | HNF4A DNA FP | LANA-H2B inh | Beta2AR agonist | RanGTP-Impb inh | ALR inh | Vif A3G
O=C(c1cccc(NS(=O)(=O)c2cccc(C(F)(F)F)c2)c1)N1CCOCC1 | -1 | -1.3 | 3.1 | 2 | 0.5 | -6 | ·
COc1ccc(NC(=O)CC(Cc2ccccc2)C(=O)O)cc1 (centres undefined) | 31 | -0.9 | 1.0 | 7 | -1.0 | -5 | 3%
Cc1nc(C)c(C(=O)Nc2cccc(C)c2C)o1 | 1 | -0.5 | · | -3 | -1.4 | · | 9%
C=CCn1c(SCC(=O)N2CCOCC2)nc(O)cc1=O | -6 | -1.3 | -3.2 | -7 | 0.8 | 1 | -6%
COc1ccc(N(CC(=O)NC2CCCC2)C(=O)c2ccc(C)s2)c(OC)c1 | -4 | 1.7 | 3.4 | -8 | ? | -1 | ·
COc1ccccc1CNC(=O)CSc1nc2c(oc3ccccc32)c(=O)n1CC1CCCO1 (centres undefined) | -5 | -1.5 | 1.9 | 2 | -2.4 | 0 | -10%
O=C(CCC(=O)N1CCSc2ccccc21)NCc1ccc(Cl)cc1 | -4 | -2.1 | 0.0 | 0 | 0.9 | -13 | ·
COc1ccc(N2CC(C(=O)N[C@@H](C)C(=O)NC3CCCC3)CC2=O)cc1 (some centres undefined) | 0 | -0.6 | 0.3 | 11 | 6.9 | 19 | -3%
O=C(CCC1CCCN(C(=O)c2cccc(F)c2)C1)N1CCN(c2ccccn2)CC1 (centres undefined) | 32 | 0.7 | -4.3 | -9 | -1.1 | 2 | -1%
Cc1cccc(-n2nnnc2SCC(=O)NCC2CCCO2)c1 (centres undefined) | 10 | 3.9 | 4.0 | -10 | 0.4 | 5 | -4%
CSc1cccc(CNC(=O)C2CCC(=O)N(Cc3cccc(C(F)(F)F)c3)C2)c1 (centres undefined) | -9 | 3.2 | 0.3 | -1 | 1.5 | -2 | ·
Cc1ccc(CN2C(=O)CCC2C(=O)NCCCN2CCCCC2C)cc1 (centres undefined) | 1 | -3.2 | 2.8 | -1 | -0.3 | -4 | ?
COc1ccc(-c2csc3ncnc(N4CCN(S(=O)(=O)c5ccc(Cl)s5)CC4)c23)cc1 | 0 | 3.7 | -7.9 | 3 | 7.4 | -17 | 2%
CCc1c(C)c(C#N)c2nc3ccccc3n2c1NC | 7 | 0.5 | -4.3 | 3 | 0.0 | -7 | 0%
O=C(N[C@@H](c1ccccc1)[C@@H]1C[C@H]1C(=O)O)OCc1ccccc1 | 2 | -6.3 | -1.7 | 0 | -0.6 | -6 | ·
CC(=O)NCCOc1c(C)cc(S(N)(=O)=O)cc1C | 3 | -0.4 | 2.4 | -9 | 2.3 | -1 | 2%
COCCNc1nc(C)cc(-c2cc(-c3ccc(Cl)cc3)on2)n1 | -4 | 4.1 | -1.9 | -6 | 0.9 | -15 | -9%
Cc1onc(-c2c(F)cccc2Cl)c1C(=O)O/N=C(\N)c1ccc([N+](=O)[O-])o1 | 20 | 0.9 | -2.7 | -1 | -0.1 | -36 | -3%
N#CCc1ccc(NC(=O)c2ccccc2C(=O)Nc2ccc(CC#N)cc2)cc1 | -1 | -1.2 | -0.7 | -4 | 2.4 | -6 | -1%
Cc1ccc(S(=O)(=O)NCCC(=O)N2CCOCC2)cc1C | -2 | -5.6 | 9.8 | -1 | -0.6 | -5 | -4%
CC(=O)NNC(=O)CSc1nnc(-c2ccccc2)c(-c2ccccc2)n1 | 5 | -8.5 | 1.4 | 6 | 0.2 | 83* | ·
CCOC(=O)Cc1csc(N/N=C\c2ccccc2OC)n1 | -9 | 0.2 | 0.2 | 0 | 0.0 | 12 | 1%
COc1cc(C)c(S(=O)(=O)n2c([N+](=O)[O-])cnc2C)cc1C | -2 | 0.1 | -5.4 | -6 | 3.1 | -11 | 1%
CCN(CCNC(=O)C1CCN(c2nnc(-n3cccc3)s2)CC1)c1ccccc1 | 2 | -1.9 | -2.4 | -13 | 2.9 | 73 | -3%
N#CC[C@H](Cc1ccccc1)N1CC[C@@H](NC(=O)OCc2ccccc2)CCC1=O | -15 | 3.2 | -1.6 | 0 | -1.2 | · | ·

Record cards, as listed above:
Profile of O=C(CCC1CCCN(C(=O)c2cccc(F)c2)C1)N1CCN(c2ccccn2)CC1 (centres undefined) : Calb FLC: 32; HNF4A DNA FP: 0.7; LANA-H2B inh: -4.3; Beta2AR agonist: -9; RanGTP-Impb inh: -1.1; ALR inh: 2; Vif A3G: -1%
Profile of COc1ccc(-c2csc3ncnc(N4CCN(S(=O)(=O)c5ccc(Cl)s5)CC4)c23)cc1 : Calb FLC: 0; HNF4A DNA FP: 3.7; LANA-H2B inh: -7.9; Beta2AR agonist: 3; RanGTP-Impb inh: 7.4; ALR inh: -17; Vif A3G: 2%
Profile of Cc1nc(C)c(C(=O)Nc2cccc(C)c2C)o1 : Calb FLC: 1; HNF4A DNA FP: -0.5; LANA-H2B inh: ·; Beta2AR agonist: -3; RanGTP-Impb inh: -1.4; ALR inh: ·; Vif A3G: 9%

Structural class: the compounds so far containing a thiophene ring, fused or not
SMILES | Calb FLC | HNF4A DNA FP | LANA-H2B inh | Beta2AR agonist | RanGTP-Impb inh | ALR inh | Vif A3G
COc1ccc(N(CC(=O)NC2CCCC2)C(=O)c2ccc(C)s2)c(OC)c1 | -4 | 1.7 | 3.4 | -8 | ? | -1 | ·
COc1ccc(-c2csc3ncnc(N4CCN(S(=O)(=O)c5ccc(Cl)s5)CC4)c23)cc1 | 0 | 3.7 | -7.9 | 3 | 7.4 | -17 | 2%

Additional structures:
SMILES | Calb FLC | HNF4A DNA FP | LANA-H2B inh | Beta2AR agonist | RanGTP-Impb inh | ALR inh | Vif A3G
CC1(C)CC(=O)C(C(C2=C(O)CC(C)(C)CC2=O)c2cccc(O)c2)C(=O)C1 (centres undefined) | · | -1.0 | -1.0 | 11 | · | 27 | 7%
O=C(COC(=O)c1ccc(Cl)cc1O)NCCN1C(=O)CSC1=O | 21 | -1.1 | 0.4 | 18 | 10 | -2 | ·
CCN(CC)c1ccc(/C=N/NC(=O)OC(C)(C)C)cc1 | -1 | -4.8 | -0.5 | 12 | 0.7 | 99* | 3%
CCCCCCc1cc2cc(/C(N)=N/NC(=O)c3ccncc3)c(=O)oc2cc1O | · | 114 | -21 | -820 | · | 5 | ·
COc1ccc(Cn2c(CCC(=O)NCc3ccco3)nc3cccnc32)cc1 | 29 | -1.7 | -4.6 | 2 | 2.4 | 0 | 9%
O=C(CSc1ccc2nnc(CCNC(=O)c3ccccc3)n2n1)NCc1ccco1 | -3 | 4.1 | 0.7 | -7 | 0.9 | 18 | ·
Cc1cccc(OCC(=O)NCc2ccncc2)c1C | -8 | 2.1 | 2.2 | -4 | 4.3 | -19 | -3%
COc1ccc(C(C)=O)cc1CN1C(=O)NC2(CCCC2)C1=O | 0 | 1.7 | -0.8 | -12 | -2.6 | 6 | 70%
O=c1oc(-c2ccccc2Br)nc2ccccc12 | 21 | -1.0 | -4.9 | 2 | 2.3 | 9 | ·
CCOCCn1[nH]c2ccccc2c1=O | · | -0.1 | 4.1 | 0 | · | 53 | ·
Cc1cc(N2CCN(c3ccccc3)CC2)n2nnnc2n1 | 6 | 3.0 | -0.1 | -1 | -0.9 | · | 10%
CC(NC(=O)c1ccccc1N)c1ccccc1 (centres undefined) | 9 | 0.7 | 1.3 | 1 | -2.8 | -2 | 14%
CC(OC(=O)C1CCC1)C(=O)Nc1cc(Cl)cc(Cl)c1 (centres undefined) | 0 | -3.8 | -0.6 | 17 | · | 1 | -4%
COC(=O)Cc1c(C)nc2nc(-c3ccccc3)[nH]n2c1=O | -1 | -1.0 | 6.5 | -1 | -0.5 | 51 | 0%
CN1CCc2nc(SCC(=O)Nc3ccc(F)cc3)c(C#N)cc2C1 | 0 | · | 3.4 | · | -3.3 | 99* | ?
CCCCC(=O)N=c1sc2c(OC)ccc(OC)c2n1C | 1 | 3.4 | 7.2 | -3 | -0.8 | -17 | -11%
Cc1nc2ccn(Cc3ccccc3)c(=O)c2cc1C(=O)N1CCN(c2ccccc2)CC1 | 7 | 1.3 | 6.1 | -2 | 92* | 24 | ·
COc1ccc(C(=O)OCC(=O)NCCCc2ccccc2)c(OC)c1 | 1 | 0.5 | 2.9 | 1 | -0.3 | -1 | 0%
Cc1noc(C)c1CN1C(=O)c2ccc([N+](=O)[O-])cc2C1=O | -13 | -1.1 | -1.5 | 1 | -0.8 | -34 | ·
CC(C)OCCCNC(=O)C1CCC(=O)N1C1CCCC1 (centres undefined) | -3 | -1.2 | -9.4 | -6 | 3.2 | 1 | 17%
CCCCOc1ccc(-c2cc(C(=O)NNC(=S)NCC)c3ccccc3n2)cc1 | 72 | 0.1 | -6.4 | 5 | 6.2 | 7 | 0%
S=c1[nH]ncc2ccccc12 | -28 | 4.6 | -2.2 | 5 | 4.4 | -26 | -3%
O=C(c1ccccc1)N1CCCC(C(=O)N2CCCCC2)C1 (centres undefined) | · | 0.0 | 0.2 | -1 | -3.6 | 0 | ·
O=C(COC(=O)/C=C/c1cccc(F)c1)Nc1ccc2[nH]c(=O)[nH]c2c1 | 4 | 2.5 | 1.1 | 7 | -6.1 | -8 | -1%
Cc1ccc(/C=C2/NC(=O)N(Cc3ccc(Br)cc3)C2=O)o1 | 5 | 0.1 | -4.8 | 6 | 4.9 | · | 18%
SMILES | Calb FLC | HNF4A DNA FP | LANA-H2B inh | Beta2AR agonist | RanGTP-Impb inh | ALR inh | Vif A3G
COc1ccccc1Nc1c([N+](=O)[O-])cncc1[N+](=O)[O-] | 21 | 0.8 | -6.5 | 9 | 0.6 | -11 | 4%
O=C(NCC1CCCO1)c1ccc(COc2ccc(Cl)cc2)cc1 (centres undefined) | 21 | -0.4 | -7.9 | -10 | 2.7 | · | ·
O=c1c2cc(F)ccc2[nH]c(=S)n1CCCN1CCOCC1 | 25 | 2.8 | 1.3 | 9 | -1.2 | -7 | 25%
Oc1c(I)cc(Cl)c2cccnc12 | · | 0.8 | -0.3 | 15 | 0.2 | · | ?
CCOC(=O)c1[nH]c(C)c(C(=O)OCC(=O)NCc2ccc(Cl)cc2)c1C | · | 8.8 | 0.8 | -5 | · | -4 | 0%
CCCCn1nnc(NC(=O)c2ccc(-c3cccc(Cl)c3)o2)n1 | 11 | 4.2 | 6.8 | 6 | 0.6 | 4 | >100µM*
Cc1ccc(C)c(NC(=O)CSc2nnc(CCCCCNC(=O)OC(C)(C)C)o2)c1 | -2 | -2.7 | 4.1 | -8 | -1.3 | 3 | 3%
Cc1ccc(C2(C)NC(=O)N(CC(=O)Nc3ccc(Cl)c(S(=O)(=O)N4CCCCC4)c3)C2=O)cc1 (centres undefined) | -1 | 5.4 | -5.7 | 6 | 1.3 | -1 | 10%
O=C(CCCOc1ccc(Cl)cc1Cl)Nc1cccnc1 | 3 | 0.4 | 2.6 | -1 | ? | -5 | -5%
CCS(=O)(=O)C1=NSC2=NC(=O)/C(=C\c3ccc(OS(=O)(=O)c4ccccc4)c(OC)c3)C(=N)N21 | 29 | 23 | -2.4 | 2 | ? | 97* | 6%
CC(=O)Nc1ccc(OC(F)(F)C(F)C(F)(F)F)c(NC(C)=O)c1 (centres undefined) | -8 | 1.1 | 1.4 | 3 | 1.3 | -2 | 4%
COc1ccc(NC(=O)CCS(=O)(=O)c2cccc3nonc23)cc1Cl | 31 | -45 | -0.3 | 3 | -0.2 | -3 | ·
